# Arbovirus inh: blocks arbovirus infection | arbovirus infection cell-based antiviral screen | inhibition, % at 10 µM | hit rate 0.37% among 200,000 | AID 1251;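 active = inhibition from about 30%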;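 also: bluetongue infection of BSR cells; cell survival read as ATP light after 72 h; 0% = infected wells without compound and 100% = uninfected wells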
# RecA intein inh: Mtb RecA intein splicing inhibition; cell-free RecA intein splicing, fluorescence; inhibition, %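 (about 9 µM by stock and volumes)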; hit rate 0.75% among 290,000; AID 2221; in the data active = inhibition above about 30%; inconclusive = no clear call, values can overlap the other calls;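 also: 0% = vehicle wells and 100% = reference inhibitor control wells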
# Target sequence (P9WHJ3 whole entry, looked up): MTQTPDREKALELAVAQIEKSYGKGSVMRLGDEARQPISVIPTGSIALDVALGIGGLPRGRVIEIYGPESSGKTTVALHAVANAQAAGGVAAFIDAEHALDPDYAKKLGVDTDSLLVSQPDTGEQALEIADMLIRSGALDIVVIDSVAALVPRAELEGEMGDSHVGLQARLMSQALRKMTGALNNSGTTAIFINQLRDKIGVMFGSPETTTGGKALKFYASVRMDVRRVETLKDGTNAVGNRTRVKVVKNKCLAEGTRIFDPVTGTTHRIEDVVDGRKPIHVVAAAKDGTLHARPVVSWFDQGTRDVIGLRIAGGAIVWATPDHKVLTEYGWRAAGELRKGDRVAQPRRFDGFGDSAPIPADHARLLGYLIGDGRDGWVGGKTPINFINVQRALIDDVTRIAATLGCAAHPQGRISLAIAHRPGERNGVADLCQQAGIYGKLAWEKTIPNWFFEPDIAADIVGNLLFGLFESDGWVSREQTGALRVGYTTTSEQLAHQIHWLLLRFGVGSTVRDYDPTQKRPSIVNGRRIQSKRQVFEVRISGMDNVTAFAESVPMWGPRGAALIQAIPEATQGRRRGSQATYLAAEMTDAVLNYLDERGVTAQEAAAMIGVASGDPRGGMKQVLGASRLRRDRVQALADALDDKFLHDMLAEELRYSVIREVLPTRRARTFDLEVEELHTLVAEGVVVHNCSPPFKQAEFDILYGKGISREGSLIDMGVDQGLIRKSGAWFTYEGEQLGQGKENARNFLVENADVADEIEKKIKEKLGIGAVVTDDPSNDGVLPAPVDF
# YopH inh: inhibitors of Yersinia enterocolitica YopH tyrosine phosphatase | fluorescence Ex485/Em525 | inhibition, %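 (about 10 µM by stock and volumes)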 | hit rate 0.16% among 140,000 | AID 898;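 active = inhibition of 50% or more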;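 also: controls were vehicle for no effect and minimum signal wells for full effect; inactives centre near -20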
# Mtb bLac sens: beta-lactam sensitization of Mtb H37Rv; AID 434955; inhibition, % at 25 µM; hit rate 0.27% among 330,000; M. tuberculosis H37Rv growth with meropenem, percent inhibition; hits of this screen are not shown here;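 active = about 74% or more and at least 40 points above the plate without the antibiotic, then above 30% in a dose series; inconclusive = first-round hits that could not be retested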;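 also: growth measured after seven days incubation then overnight dye step; 0% = bacteria only wells and 100% = bacteria with antibiotic; twin plates without the antibiotic show which effects depend on it; some results filed as inactive read as strong as hits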
# Mtb growth: M. tuberculosis H37Rv growth inhibitors, H37Rv strain (AID 1626); M. tuberculosis H37Rv growth inhibition; higher % means a stronger effect; inhibition, % at 10 µM; hits with a dose series show IC50 in µM; hit rate 0.95% among 220,000;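 active = confirmed in a dose series; inconclusive = inhibition above 80% but not taken into the dose series; inactive = below 80% or under 30% at every dose of the series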;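 also: bacteria incubated seven days before Alamar blue readout; 0% = bacteria only wells and 100% = bacteria with antibiotic wells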
# Arbovirus inh repeat: further read-out of Arbovirus inh, marked with its call; inhibition, %; measured here: 10K subset replicate screen; many hits read low in the repeat;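 first of two repeat runs on a subset; 0% = infected and 100% = uninfected wells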
# Active calls of the source: *; ? = inconclusive; . = no result given. A portion of the library. The share of hits here may be higher or lower than overall.
SMILES,Arbovirus inh,RecA intein inh,YopH inh,Mtb bLac sens,Mtb growth,others
CCOC(=O)c1ccc(NC(=O)CSc2nc(N3CCOCC3)nc(N3CCOCC3)n2)cc1,.,0.2,.,-4.3,.,
COc1ccc(NC(=O)COC(=O)CCNS(=O)(=O)c2ccccc2)cc1OC,5.6,1.3,.,-1.5,1.6%,
N#C/C(=C\c1ccc(-c2ccccc2[N+](=O)[O-])o1)C(=O)N1CCOCC1,6.0,0.8,.,3.5,3.7%,
O=C(NCCc1ccccc1)C(=O)NC1CCCCC1,8.3,1.4,-13.7,-1.3,-7.0%,
COC(=O)c1cc(Nc2cc(C)c3ccc(O)cc3n2)cc(C(=O)OC)c1,.,-0.9,.,1.4,-8.0%,
COc1ccc(Cl)cc1S(=O)(=O)N1CCC(C(=O)NCCc2ccccc2)CC1,.,0.9,.,2.0,.,
COc1ccc2oc(C(=O)OCC(=O)Nc3ccc(C(=O)N(C)C)cc3)c(C)c2c1,.,-2.1,.,-20.8,.,
O=C(Cn1cnc([N+](=O)[O-])n1)N/N=C/c1cc(Cl)ccc1O,4.2,-3.9,.,12.4,4.6%,
CSc1nc(C(=O)N2CCc3c([nH]c4ccccc34)C2c2ccccn2)cs1 (configuration not stated),1.6,6.5,.,0.5,5.5%,
CC(C)c1nc(CNC(=O)c2cc(COc3c(F)cccc3F)on2)cs1,-0.6,2.0,.,5.1,3.7%,
Cc1nc(-c2ccc(NC(=O)c3ccco3)cc2)cs1,.,1.2,.,13.5,.,
CCOC(=O)c1c(NC(=S)NCc2ccccc2)sc2c1CCN(C(=O)OCC)C2,.,-2.7,.,10.7,9.0%,
Cc1cc(C)cc(CC2CC(=O)N(c3ccc(Cl)cn3)C2=O)c1 (configuration not stated),14.7,-0.7,-7.3,-12.6,6.1%,
COC(=O)C(O)(NC(=O)OCc1ccccc1)C(F)(F)F (configuration not stated),8.4,-0.5,-31.0,-0.9,-5.4%,
Cc1cc(Nc2cccc([N+](=O)[O-])c2)c2cccc(C)c2n1,.,.,.,3.7,-6.8%,
COc1ccccc1-c1nc2ccccc2c(=O)n1O,.,-0.2,.,4.3,.,
O=C(N1CCCCCC1)N1CCN(S(=O)(=O)c2ccccc2)CC1,2.4,0.7,-63.7,-1.8,-5.5%,
O=C(O)c1ccccc1C(=O)NNc1ccc(Cl)cc1Cl,-18.8,-4.1,.,90.4,?,
CCOC(=O)c1ccc(N=c2sc(C(=O)OC)cc(=O)n2C2CC2)cc1,-4.8,0.2,-34.5,-0.2,-4.1%,
CCCCC(=O)Nc1nnc(-c2ccco2)o1,18.6,-0.6,.,0.8,13.5%,
CCOc1cc(CNCc2ccncc2)cc(Br)c1OCc1ccc(F)cc1,2.7,1.1,-21.0,-5.6,54.5%,
COc1ccc(CN2CCN(C(=O)Cn3ncn4cccc4c3=O)CC2)c(OC)c1OC,.,0.0,.,?,.,
CCOC(=O)Cn1c(CN2CCc3ccccc3C2)nc2c1c(=O)n(C)c(=O)n2C,1.2,1.2,-19.4,-1.4,-4.0%,Arbovirus inh repeat=-1.3
CCOC(=O)c1sc(N=NC2=C(O)CC(C)(C)CC2=O)c(C(=O)OCC)c1C,1.1,1.1,.,0.5,-4.6%,
O=C(O)CSC1CC(=O)N(c2cccc(Cl)c2)C1=O (configuration not stated),5.5,1.5,-25.9,1.7,-10.4%,
CN(C)S(=O)(=O)c1ccc(C(=O)NCc2ccccc2)cc1,-7.8,-1.0,-45.6,-10.3,0.1%,
CCOc1ccc(CCNC(=O)COC(=O)c2cccnc2Cl)cc1OCC,.,0.8,.,-9.9,.,
Cc1nn(-c2ccccc2)c(C)c1C(=O)NCc1ccc(F)cc1,3.0,-1.4,-31.1,2.4,1.6%,
CCOc1ccccc1NC(=O)NC1CC2CCCC(C1)N2Cc1nnnn1CCc1ccccc1 (configuration not stated),5.8,3.8,-31.0,3.4,-2.5%,
O=C(O)CCC(=O)Nc1sc2c(c1C(=O)Nc1cccc3ccccc13)CCCCC2,7.4,0.9,-7.3,5.0,5.1%,
O=C(c1ccco1)N1CCN(C(=O)N2CCOCC2)CC1,-2.1,.,-34.6,5.5,-14.0%,
O=C(c1cc(-c2ccncc2)nc2ccc(Cl)cc12)N1CCN(C(=O)C2CCCO2)CC1 (configuration not stated),-9.2,0.6,-17.9,3.5,2.5%,
CCOc1cc(S(=O)(=O)N2CCC(C(N)=O)CC2)ccc1F,0.1,-2.1,-6.4,-8.5,-7.7%,
CCn1c(C(=O)N2CCC(C(=O)NCc3ccc(OC)cc3)CC2)cc2sccc21,.,2.6,.,2.8,.,
c1ccc(-c2ccc(-c3nc(-c4cccnc4)no3)cc2)cc1,-3.1,-1.7,-36.2,31.8,26.2%,Arbovirus inh repeat=2.7
O=C1C=C(c2cccnc2)CCC1,.,-1.4,.,8.4,-8.0%,
COc1ccc(C(C(=O)NCC2CCCO2)N(C(=O)CNC(=O)c2ccco2)c2cc(C)ccc2C)cc1OC (configuration not stated),.,2.3,.,-0.8,.,
CC(C)(C)NC(=O)C(c1ccncc1)N(Cc1cccs1)C(=O)Cn1nnc(-c2ccc(F)cc2)n1 (configuration not stated),-21.7,9.7,-6.9,7.6,13.3%,
C=CCNc1ccc(F)c(F)c1N1CCCCCC1=O,-2.0,0.2,-12.1,0.9,0.4%,
O=C(NN1CCOCC1)NC12CC3CC(CC(C3)C1)C2,.,0.4,.,11.4,-3.4%,
CSCC[C@H](NC(=O)NCCc1ccc(F)cc1)C(=O)O,6.6,-1.5,16.0,4.4,-7.2%,
OC1(c2ccc(Br)cc2)CCN(Cc2cccc(Br)c2)CC1,.,2.5,.,0.2,.,
CCOc1ccc(NC(=O)CCNC(=O)Cn2ccc3ccccc3c2=O)cc1,.,-0.2,.,-5.7,.,
COc1ccnc(NCc2cccc(C(F)(F)F)c2)c1C#N,-3.9,0.5,-36.7,-0.1,-5.8%,
Cn1nc(CC(=O)Nc2cccc3ncccc23)c2ccccc2c1=O,3.2,3.0,-49.5,-7.3,6.4%,
Nc1nc2c(C(=O)N3CCOCC3)nnn2c2ccccc12,.,.,.,-8.1,-1.7%,
COc1cc(OC)cc(C(=O)NCCCN2CCOCC2)c1,19.3,-0.6,-13.2,3.4,2.8%,
O=C(NNc1nccc(C(F)(F)F)n1)Nc1cccc(Cl)c1,.,2.0,.,-5.2,.,
N#CCc1nn(-c2ccc(F)cc2)c(N)c1C#N,-2.9,-0.7,.,-2.0,0.4%,
Cc1cc(NC(=O)c2ccoc2C)no1,-1.2,1.7,-13.0,4.6,-5.7%,
CCCN1C(=O)c2cc(C(=O)NCCc3cccc(C)c3)ccc2C1O (configuration not stated),1.7,.,-42.1,4.6,-11.6%,Arbovirus inh repeat=3.8
CC1CCN(c2nc3nonc3nc2Nc2ccc(F)cc2)CC1,-1.9,4.7,.,2.3,2.6%,
Cc1ccc(C(=O)CC2C(=O)N(c3ccccc3)C(=S)N2c2ccccc2)cc1 (configuration not stated),-1.7,-2.2,-49.1,19.7,4.8%,
O=C(CCn1c(=O)c2sccc2n(CC(=O)OCc2ccccc2)c1=O)NCc1ccccc1,-5.0,0.7,-14.2,-7.4,-4.6%,
O=C(CN1CCN(Cc2ccccc2)C1=O)NCc1ccc(Cl)cc1,5.2,-2.7,-23.9,-8.7,6.3%,
CCCc1cc(=O)[nH]c(NCCc2ccccc2)n1,.,-3.5,.,3.2,.,
COc1ccc(C(=O)CCC(=O)N2CCN(c3ccc([N+](=O)[O-])cc3)CC2)cc1,.,-3.0,.,8.9,.,
CC(OC(=O)CCN1C(=O)c2cccc([N+](=O)[O-])c2C1=O)C(=O)Nc1cc(Cl)cc(Cl)c1 (configuration not stated),-0.9,-4.9,-9.4,5.2,-2.9%,
Cc1cccc(Nc2nnc(SCC(=O)NCc3cccs3)s2)c1C,0.4,6.3,-31.4,58.6,7.3%,
Cc1ccc(NC(=O)CN2C(=O)NC3(CCCc4ccccc43)C2=O)c([N+](=O)[O-])c1 (configuration not stated),.,-0.8,.,1.7,.,

# Going on with the list:
SMILES,Arbovirus inh,RecA intein inh,YopH inh,Mtb bLac sens,Mtb growth,others
CCc1ccccc1NC(=O)CSc1nnc(-c2cc(C)[nH]n2)n1N,.,6.6,.,-10.4,.,
CCOC(=O)C1(CCc2ccccc2)CCN(C(=O)c2ccoc2)CC1,4.6,.,.,-1.5,-0.3%,
C[C@H](NC(=O)N1CCC(Cc2ccccc2)CC1)C(=O)O,.,1.5,.,-3.3,.,
COc1ccc(F)c(CN2CCC(n3nccc3NC(=O)C3CCOC3)CC2)c1 (configuration not stated),.,1.6,.,?,.,
Cc1c(Cl)cccc1NC(=S)N1CCC(C(N)=O)(N2CCCCC2)CC1,5.5,.,-30.1,5.3,-2.5%,
C=CCNC(=O)CSc1n[nH]c(-c2cc(Cl)ccc2OC)n1,-7.4,0.7,.,8.0,1.7%,
CC[C@@H]1C=CC=CC[C@H](C)[C@@H](O)[C@@H](C)C(=O)[C@H](C)[C@@H](O)[C@H](C)C(=O)[C@H](C)[C@@H](O)[C@H](C)C=CC(=O)O[C@H]2[C@@H](C)[C@@H](CC1)O[C@@]1(CC[C@@H](C)[C@@H](C[C@H](C)O)O1)[C@@H]2C,.,6.9,.,86.0,42.9%,
Cc1cc(O)cc2c1C(=O)/C(=C/c1ccco1)O2,.,-45.4,.,3.9,.,
O=C(CN1C(=O)CC(c2ccco2)Sc2ccccc21)NCc1ccc2c(c1)OCO2 (configuration not stated),-14.7,-1.4,-40.2,2.0,.,
CSCCC1NC2(C(=O)Nc3c(C)cc(Cl)cc32)[C@@H]2C(=O)N(C3CCCC3)C(=O)[C@H]12 (some centres not stated),7.9,6.4,-1.1,79.4,-16.1%,
COc1cc(Br)c(CCNC(=O)Cc2ccccc2)cc1OC,0.5,-1.0,-23.8,1.2,-11.9%,
O=C(CSC(=S)N1CCOCC1)c1cc2ccccc2oc1=O,.,-2.3,.,-3.4,.,
C=CCn1c(COc2cccc3ccc(C)nc23)nnc1SCC(=O)O,-1.2,-1.8,-7.3,1.4,-2.9%,
CCOC(=O)c1ccc(N2C(=O)c3n[nH]c(C)c3C2c2ccco2)cc1 (configuration not stated),-7.8,3.4,-38.8,-8.1,0.0%,
C/C(=N\Nc1ccccc1)c1c(O)cc(C)oc1=O,-30.8,-2.9,.,-1.0,78.2%,
Cc1cccc(NC(=S)N(c2ccccc2)C(C)C)c1C,-0.7,0.3,-40.1,-0.3,1.5%,
Cc1cccc(CSc2nncc(=O)[nH]2)c1,6.5,-1.2,11.3,-6.2,1.6%,
CCOc1ncccc1C(=O)Nc1ccc(OC)c(S(=O)(=O)N2CCCCC2)c1,9.1,-1.8,.,-5.7,0.2%,
C=CCC(C=C)[N+]1(CC(=O)OC)CCCCC1 (configuration not stated),0.6,3.3,.,-2.6,2.5%,
O=C(OCC(=O)N1CCCC1)c1c(Cl)ccc(Cl)c1Cl,.,0.4,.,-3.7,.,
CCOc1ccc(CCNC(=O)c2ccc(C)c(N3CCCC3=O)c2)cc1OCC,20.3,0.9,.,1.9,5.2%,
CCCNC(=O)c1ccc(N(Cc2ccccc2)S(C)(=O)=O)cc1,6.1,-0.7,-15.2,4.9,-8.2%,
Nc1cc(-c2ccc(Br)cc2)[nH]n1,5.7,2.9,-23.9,-3.8,10.7%,
CCOc1ccc(-n2nc3c(=O)n(CCN4CCCCC4)nc(C)c3c2C)cc1,8.1,-0.7,2.5,-3.6,0.0%,
Cc1cc(C)c(NC(=O)Cn2nnc(C(=O)Nc3ccc(F)cc3F)c2N)c(C)c1,.,-0.9,.,9.5,.,
COc1ccc(S(=O)(=O)NCC2CCCN(Cc3ccccc3C)C2)cc1 (configuration not stated),-11.2,2.4,.,5.2,-3.2%,

# Of the compounds above, 7 contain an NH in an aromatic ring.
SMILES,Arbovirus inh,RecA intein inh,YopH inh,Mtb bLac sens,Mtb growth,others
CSc1nc(C(=O)N2CCc3c([nH]c4ccccc34)C2c2ccccn2)cs1 (configuration not stated),1.6,6.5,.,0.5,5.5%,
CCCc1cc(=O)[nH]c(NCCc2ccccc2)n1,.,-3.5,.,3.2,.,
CCc1ccccc1NC(=O)CSc1nnc(-c2cc(C)[nH]n2)n1N,.,6.6,.,-10.4,.,
C=CCNC(=O)CSc1n[nH]c(-c2cc(Cl)ccc2OC)n1,-7.4,0.7,.,8.0,1.7%,
CCOC(=O)c1ccc(N2C(=O)c3n[nH]c(C)c3C2c2ccco2)cc1 (configuration not stated),-7.8,3.4,-38.8,-8.1,0.0%,
Cc1cccc(CSc2nncc(=O)[nH]2)c1,6.5,-1.2,11.3,-6.2,1.6%,
Nc1cc(-c2ccc(Br)cc2)[nH]n1,5.7,2.9,-23.9,-3.8,10.7%,
